# HNF4A DNA FP = change in binding of human HNF4 alpha to DNA | P41235 | HNF4a-FITC DNA binding, fluorescence polarization, 1 h | activity change, % at 10 µM | hit rate 0.3% among 360,000 | AID 1224865; in the data active means activity change above about 30%, passing the limit was not always enough;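 further: controls were the assay level and a saturating level of protein; the project sought stronger binding though the title names inhibitors; some compounds called inactive have numbers as strong as hits; positive values seem to mean higher polarization but the record does not say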
# Target sequence (P41235 whole entry, looked up): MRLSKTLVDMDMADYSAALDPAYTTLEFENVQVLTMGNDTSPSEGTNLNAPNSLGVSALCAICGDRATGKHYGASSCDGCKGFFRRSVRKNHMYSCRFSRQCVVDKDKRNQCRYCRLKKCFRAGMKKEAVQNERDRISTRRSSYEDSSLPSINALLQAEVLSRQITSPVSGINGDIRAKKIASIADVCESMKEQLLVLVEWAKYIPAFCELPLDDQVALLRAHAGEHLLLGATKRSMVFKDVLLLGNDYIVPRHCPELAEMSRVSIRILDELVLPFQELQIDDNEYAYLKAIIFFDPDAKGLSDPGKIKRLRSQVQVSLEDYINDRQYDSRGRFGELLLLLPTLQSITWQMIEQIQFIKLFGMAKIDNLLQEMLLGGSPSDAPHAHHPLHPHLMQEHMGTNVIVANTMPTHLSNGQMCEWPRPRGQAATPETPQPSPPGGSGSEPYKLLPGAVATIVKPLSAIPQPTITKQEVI
# B2AR ag = human beta-2 adrenergic receptor agonism by FAP | P07550 | Am2.2-beta2AR cells, FAP receptor internalization, flow cytometry; reference of the scale not given here | response, % (no concentration beside the values) | hit rate 0.43% among 340,000;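 active means response above a set limit, near 3 SD of response in nonfluorescent compounds, cut at about 42% in these data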;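 further: stock transfer was 100 nL into about 11 µL; a reference agonist was the positive control; negative values mostly stem from fluorescent compounds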
# Ecoli rRNA inh = selective bacterial rRNA inhibition in E. coli. E. coli WT GFP vs humanized-ribosome RFP mutants, fluorescence, 24 h; stronger effect = lower value; DMSO median 0, no signal -100. GFP signal change (wild-type ribosome), % (no concentration beside the values). hit rate 1.6% among 350,000;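 active means significant combined selectivity score with lowered wild-type GFP, culture density cut under 30%, mutant RFP and density less affected; inactive means any of these conditions unmet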; further: one replicate is shown; some compounds called inactive have numbers as strong as hits
# Ecoli growth = inhibitors of Escherichia coli growth. OD600, 23 h; stronger effect = lower value. OD600 absorbance (no concentration beside the values). hit rate 0.21% among 330,000. AID 1053175;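 active means OD600 absorbance below the run mean of sample wells minus 3.6 SD, in any replicate, cut at about 0.56 in these data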;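 further: stock transfer was 300 nL into about 60 µL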
# ALR inh = inhibitors of human sulfhydryl oxidase ALR | hit rate 3.8% among 290,000 | purified ALR, DTT oxidation, H2O2 HRP-luminol luminescence | inhibition, % (concentration not given with the values) | P55789;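 active means mean and each replicate at 75% or more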;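 further: stock transfer was 7.5 nL into about 7.5 µL; 0% = neutral wells and 100% = wells with inactivated enzyme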
# Target sequence (P55789 whole entry, looked up): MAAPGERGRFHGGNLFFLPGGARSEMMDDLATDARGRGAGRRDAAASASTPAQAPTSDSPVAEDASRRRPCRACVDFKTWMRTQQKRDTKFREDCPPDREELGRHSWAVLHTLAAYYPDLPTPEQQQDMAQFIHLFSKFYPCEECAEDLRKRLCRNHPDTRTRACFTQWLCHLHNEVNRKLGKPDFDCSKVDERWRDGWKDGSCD
# UCH37 inh = blocks the human deubiquitinase UCH37; hit rate 0.33% among 330,000; purified proteasome/UCH37, Ub-AMC cleavage fluorescence; Q9Y5K5; inhibition, % (concentration not given with the values);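 active means mean of two replicates above 20%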;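 further: 0% = compound-free wells with enzyme and 100% = wells lacking proteasome; stock transfer was 100 nL into about 20 µL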
# Target sequence (Q9Y5K5 whole entry, looked up): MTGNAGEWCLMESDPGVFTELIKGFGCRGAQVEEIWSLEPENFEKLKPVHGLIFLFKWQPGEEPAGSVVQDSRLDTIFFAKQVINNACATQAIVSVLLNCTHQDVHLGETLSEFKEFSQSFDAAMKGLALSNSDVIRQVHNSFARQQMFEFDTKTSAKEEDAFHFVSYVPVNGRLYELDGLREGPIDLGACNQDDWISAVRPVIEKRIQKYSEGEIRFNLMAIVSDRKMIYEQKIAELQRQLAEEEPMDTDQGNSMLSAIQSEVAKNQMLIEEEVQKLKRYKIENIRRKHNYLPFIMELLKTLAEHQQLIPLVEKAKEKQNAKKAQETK
#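 Material: Human UCH37 enzyme supplied as purified proteasome complex | Schedule: 30 min compound-proteasome preincubation then 25 min substrate reaction, room temperature | Detection: AMC fluorescence from Ub-AMC cleavage, excitation 355 nm, emission 460 nm | Benchmarks: Wells without proteasome as full block, compound-free enzyme plus substrate as uninhibited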
# FGF22 binding = binders of recombinant human FGF22 by thermal shift; hit rate 1.5% among 340,000; AID 651658; calls only at 9.99 µM; SYPRO orange fluorescence; percent of sucrose octasulfate shift, DMSO zero; Q9HCT0;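 active means melting point raised past a set limit in the mean and every replicate; three in four hits are not shown here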
# Ecoli rRNA inh OD600 = further read-out of Ecoli rRNA inh, marked with its call; OD600 change, %; measured here: OD600 growth;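 optical density of the mix in the first replicate; 0 = DMSO median and -100 = no signal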
# Ecoli rRNA inh RFP = further read-out of Ecoli rRNA inh, marked with its call; RFP signal change, %; measured here: RFP humanized mutant strains;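 first replicate; 0 = DMSO median and -100 = no signal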
# Active calls of the source: *; i = inactive; . = no result given. An excerpt (hit frequency here may not be typical).
no.	structure	HNF4A DNA FP	B2AR ag	Ecoli rRNA inh	Ecoli rRNA inh OD600	Ecoli rRNA inh RFP	Ecoli growth	ALR inh	UCH37 inh	FGF22 binding
1	COc1ccccc1/C=C/C(=O)NCC(=O)N/N=C/c1ccccc1	3.3	1	-11	-11	-3.5	.	-6	.	i
2	CC(C)C(NC(=O)c1ccco1)C(=O)OCC(=O)NCCc1ccccc1 (configuration not stated)	1.3	7	0	8	4.4	0.64	0	0.9	i
3	O=C(CCl)N1CCN(S(=O)(=O)c2ccc3c(c2)OCCCO3)CC1	-4.1	1	6	13	-3.8	0.68	4	2.8	i
4	COc1ccc(OC(=O)c2cnn(-c3ccccc3)c2C)cc1	-1.5	5	.	.	.	0.69	-1	1.1	.
5	O=c1c(-c2ccc(Cl)cc2)[n+]([O-])c2ccccc2n1OCc1nc2ccccc2[nH]1	-7.2	-8	11	7	1.0	0.6	-7	-7.8	i
6	CCOC(=O)C1CCN(C(=O)c2ccccc2NC(C)=O)CC1	0.1	-1	.	.	.	0.7	-4	-0.3	.
7	O=C(COC(=O)/C=C/c1ccc([N+](=O)[O-])cc1)NCC1CCCO1 (configuration not stated)	-0.1	2	14	3	-1.2	0.66	95*	2.7	i
8	Cc1c(CC(=O)NCCCC(=O)O)c(=O)oc2cc3oc4c(c3cc12)CCCC4	-1.1	-5	-5	-18	-3.6	0.66	-5	-24	i
9	CC1(C)CCCC2(C)C(OCCO)=CC(=O)C=C12 (configuration not stated)	3.0	.	6	9	-0.2	.	.	.	i
10	C1CCN(CC2CCCCN2)CC1 (configuration not stated)	6.1	0	.	.	.	0.67	.	0.0	i
11	CC(C)CCNC(=O)Cc1c(C(=O)O)[nH]c2ccc(Cl)cc12	-0.3	-2	.	.	.	0.77	-1	3.7	.
12	CCC(=O)Nc1cccc(NC(=O)c2cccnc2)c1	-1.9	-3	.	.	.	0.71	8	2.7	.
13	Cc1cccc(N/N=C/c2ccc(O)c(O)c2O)c1	-0.1	4	107	-17	38	.	79*	.	i
14	O=C(Nc1ccc(F)cc1)c1ccc(S(=O)(=O)N2CCOCC2)o1	3.7	0	5	-3	2.9	0.62	-7	3.4	i
15	CSc1nc(C)nc2c1c(=O)n(C)c(=O)n2C	2.8	1	3	11	-4.5	0.75	-9	4.3	i
16	COc1cc(C(=O)NCc2nnc(SCC(=O)Nc3ccc4c(c3)OCO4)o2)cc(OC)c1OC	-0.7	-4	9	14	-2.0	0.69	-1	2.6	i
17	COc1ccc(CNC(=O)CN(Cc2ccc(Cl)cc2)C(=O)c2csnn2)cc1	-2.3	5	-7	-9	0.9	0.69	-1	5.0	i
18	O=S(=O)(Nc1ccccc1)c1cccc2nonc12	6.7	-4	14	10	2.5	0.71	1	4.1	.
19	CCN(CC)S(=O)(=O)c1ccc(OC)c(NS(=O)(=O)c2cccc(C(=O)O)c2)c1	-1.7	1	11	10	1.0	0.68	.	3.9	i
20	COc1cc(/C=C/C(=O)OCC(=O)NCC(=O)Nc2cccc(C)c2C)ccc1OC(F)F	2.4	-2	28	29	3.5	0.69	-3	-4.3	i
21	CCOC(=O)c1cccnc1SCC(=O)N(C)c1ccccc1	-1.8	0	.	.	.	0.65	-6	0.3	.
22	O=C1OC(c2ccc(Cl)cc2)/C(=C(/O)c2ccccc2)C1=O (configuration not stated)	5.2	-6	.	.	.	0.69	97*	3.7	.
23	COc1ccc(CNC(=O)CNC(=O)N2CC(=O)Nc3ccccc32)cc1	5.2	5	7	6	0.0	0.67	-37	2.6	i
24	O=C(NCc1ccccc1Cl)C1CCC(CNc2c(N3CCCCC3)c(=O)c2=O)CC1 (configuration not stated)	1.3	5	7	12	5.5	0.74	.	4.2	i
25	CC(C)(C)N=C1NC(=NC(C)(C)C)c2ccccc21	-7.1	-6	6	-7	-10	0.69	-4	-3.5	i
26	CCc1nc2c(OCCOc3ccc(F)cc3)cccn2c1N(C)C(=O)c1ccc(OC)cc1	-1.1	.	-8	-41	10.0	.	.	.	i
27	CCNC(=O)c1ccc(C2SCC(=O)N2Cc2ccco2)cc1 (configuration not stated)	0.7	-1	.	.	.	0.72	-2	3.2	.
28	CCOC(=O)Nc1nc(-c2ccc(Cl)cc2Cl)cs1	2.5	-5	.	.	.	0.72	50	2.4	i
29	CCCn1c(SCC(=O)N2CCN(C(=O)c3ccco3)CC2)nc2ccccc2c1=O	1.4	-6	-21	-32	-2.2	0.67	-2	0.2	i
30	Cc1cc(Nc2c(C)cccc2C)n2nc(C)nc2n1	0.4	6	-5	3	-3.9	0.72	.	3.5	i

# In a second layout: 5 of the compounds above
cpd | HNF4A DNA FP | B2AR ag | Ecoli rRNA inh | Ecoli rRNA inh OD600 | Ecoli rRNA inh RFP | Ecoli growth | ALR inh | UCH37 inh | FGF22 binding | SMILES
26 | -1.1 | . | -8 | -41 | 10.0 | . | . | . | i | CCc1nc2c(OCCOc3ccc(F)cc3)cccn2c1N(C)C(=O)c1ccc(OC)cc1
27 | 0.7 | -1 | . | . | . | 0.72 | -2 | 3.2 | . | CCNC(=O)c1ccc(C2SCC(=O)N2Cc2ccco2)cc1 (configuration not stated)
28 | 2.5 | -5 | . | . | . | 0.72 | 50 | 2.4 | i | CCOC(=O)Nc1nc(-c2ccc(Cl)cc2Cl)cs1
29 | 1.4 | -6 | -21 | -32 | -2.2 | 0.67 | -2 | 0.2 | i | CCCn1c(SCC(=O)N2CCN(C(=O)c3ccco3)CC2)nc2ccccc2c1=O
30 | 0.4 | 6 | -5 | 3 | -3.9 | 0.72 | . | 3.5 | i | Cc1cc(Nc2c(C)cccc2C)n2nc(C)nc2n1

# Additional records follow.
no.	structure	HNF4A DNA FP	B2AR ag	Ecoli rRNA inh	Ecoli rRNA inh OD600	Ecoli rRNA inh RFP	Ecoli growth	ALR inh	UCH37 inh	FGF22 binding
31	CS(=O)(=O)N1CCN(CC2CC3C=CC2C3)CC1 (configuration not stated)	2.3	1	.	.	.	0.7	-11	4.2	.
32	CN(C)CCSc1nc(O)c(-c2ccccc2)c(=O)n1-c1ccccc1	7.6	4	-7	-3	-5.6	0.67	-6	2.7	i
33	CC(C)c1ccc(C(C(=O)NC2CCCC2)N(C(=O)CNC(=O)c2ccco2)c2cccnc2)cc1 (configuration not stated)	-0.9	0	.	.	.	0.8	6	6.1	.
34	COc1ccc(N=C2S/C(=C\c3cc(C)n(C)c3C)C(=O)N2C)cc1	2.5	-25	.	.	.	.	0	-1.6	.
35	CCOc1ccc(CN(CC)C(=O)c2ccc3c(c2)[nH]c(=O)c(=O)n3CC)cc1OC	-0.7	-8	2	4	9.2	0.69	-13	1.2	i
36	CC(=O)/C(N=Nc1c(C)n(C)n(-c2ccccc2)c1=O)=C(\C)O	-1.8	1	18	10	2.3	0.71	66	13	i
37	O=C(N/C(=C/c1ccc2c(c1)OCO2)C(=O)N1CCOCC1)c1cccs1	-0.2	-8	.	.	.	0.7	-8	8.5	.
38	CCOC(=O)C1CCN(Cc2cccc(OC)c2)CC1	1.6	8	24	14	-1.0	0.7	-5	3.9	i
39	O=C(CCCn1nnnc1CN1CCOCC1)N1CCC(c2ccccc2Cl)C1 (configuration not stated)	2.4	11	0	0	-0.9	0.71	-15	0.4	i
40	Cc1csc(SCC(=O)NC(=O)C2CCCCC2)n1	0.0	-3	1	4	0.6	0.63	-9	0.1	i
41	Cc1cc(-c2nn3c(C)nnc3s2)ccc1NC(=O)C(C)(C)C	0.2	-12	.	.	.	0.67	-3	-1.4	.
42	Cc1ccc(N2CC(C(=O)NC3CC3)CC2=O)cc1Cl (configuration not stated)	4.5	-1	2	3	1.8	0.69	1	1.2	i
43	COc1ccc(CCN=Cc2ccccc2O)cc1OC	1.2	-5	7	11	-0.1	0.63	-16	4.0	i
44	C=CCc1cc(Cl)ccc1OCCOCCNC(C)(C)C	-1.9	0	-7	-10	-0.6	0.69	-14	4.1	i
45	COC(=O)[C@H](CC(C)C)NC(=O)/C=C/[C@H]1O[C@@H](n2ccc(=O)[nH]c2=O)[C@H](O)[C@@H]1O	1.9	.	4	1	9.3	.	.	.	i
46	O=C(COC(=O)CNC(=O)c1ccccc1F)Nc1cccc(S(=O)(=O)N2CCCCCC2)c1	2.2	8	-9	-7	-0.2	0.67	1	4.8	i
47	O=[N+]([O-])c1ccc(Oc2cccc3cccnc23)c(Cl)c1	-2.4	19	-3	-5	-1.8	0.67	-14	5.0	i
48	CC(=O)Oc1cccc(N2C(=O)c3ccccc3C2=O)c1	-0.7	-3	4	9	-0.5	0.67	-6	3.7	i
49	CC1=C(C(=O)N2CCOCC2)CC(CC(=O)NC2CC2)C(=O)N1Cc1ccc(F)cc1 (configuration not stated)	-1.4	.	2	11	-4.1	.	.	.	i
50	COc1ccc(CNC(=O)C2CSC(c3ccc(OC)cc3)N2C(C)=O)cc1 (configuration not stated)	-1.1	-1	1	2	-6.8	0.74	85*	2.0	i
51	N/C(=N\OC(=O)c1ccc2c(c1)OCO2)c1ccc([N+](=O)[O-])cc1	4.8	6	-1	7	-0.8	.	27	.	i
52	COc1ccc(C(=O)CCc2ccccc2)c(O)c1	1.7	-4	-10	-12	-7.2	0.64	0	2.2	i
53	CNC(=S)NNC(=O)COc1ccc(C)c(C)c1	-3.9	-7	-2	-1	-7.5	0.63	90*	1.0	i
54	Cc1ccc(CN2C(=O)CCC2C(=O)NCc2ccco2)cc1 (configuration not stated)	-2.2	4	.	.	.	0.7	-5	0.9	.
55	O=C(N/N=C/c1ccccn1)c1cc(-c2ccccc2Cl)n[nH]1	-3.5	-7	-29	-44	-6.4	.	-3	.	i
56	CC(C)CNc1ncnc2c1ncn2[C@H]1CN(CCN2CCOCC2)C[C@@H](CO)O1	0.1	.	18	21	-0.3	.	.	.	i
57	Cc1nn(Cc2ccc(F)cc2)c(C)c1NC(=O)c1cnn2c1NC(c1cccs1)CC2C(F)(F)F (configuration not stated)	-1.0	-1	.	.	.	0.66	-2	0.7	.
58	COCCCN1C(=O)N(c2ccccc2)C(=O)C1CC(=O)Nc1ccc(F)cc1 (configuration not stated)	0.1	4	11	4	0.3	0.66	1	2.3	i
59	COc1ccc(NC(=O)CN2CCC(C(N)=O)(N3CCCCC3)CC2)cc1	5.0	2	.	.	.	0.66	0	5.5	.
60	Fc1ccc(NCc2nnc(SCc3ccccc3)o2)cc1	2.2	4	-25	-26	3.3	0.71	.	0.6	i

# Other results follow:
no.	structure	HNF4A DNA FP	B2AR ag	Ecoli rRNA inh	Ecoli rRNA inh OD600	Ecoli rRNA inh RFP	Ecoli growth	ALR inh	UCH37 inh	FGF22 binding
61	CCOC(=O)C1=C(C)Nc2sc(C(=O)c3ccc(Br)cc3)c(N)c2C1c1ccc(C(=O)OC)cc1 (configuration not stated)	2.8	5	.	.	.	0.73	1	-12	.
62	CN(CC(=O)Nc1ccccc1Cl)C(=O)CN1C(=O)C2CCCCC2C1=O (configuration not stated)	2.4	1	9	5	3.3	0.65	-4	4.3	i
63	Cc1ccc(OCC(=O)NNC(=S)NC(=O)c2cccs2)c(C)c1	-3.3	-5	-18	-10	-1.9	0.69	98*	5.8	i
64	O=C(COc1ccc(-c2nnco2)cc1)Nc1c(F)cccc1F	3.3	-3	6	3	-0.9	0.63	-4	1.1	i
65	COC(=O)c1c(N)[nH]c(C(=O)c2ccccc2)c1-c1ccccc1Br	0.1	.	-57	-75	-12	.	.	.	i
66	COc1ccc([N+](=O)[O-])cc1N(CC(=O)NCC1CCCO1)S(C)(=O)=O (configuration not stated)	-0.8	0	.	.	.	0.69	1	4.2	.
67	Cc1cc(C)nc(NC(=O)c2ccc(C)c(C)c2)n1	-0.3	1	1	7	-1.5	0.67	7	2.9	i
68	O=C(NC(=S)Nc1ccc(-c2nc3ncccc3o2)cc1)c1ccccc1F	1.2	-18	18	4	1.5	0.71	7	-11	i

# Screening data (PubChem BioAssay)
